Bioassay records: PubChem, several laboratories
ALR H2O2 inh: blocks human ALR sulfhydryl oxidase activity | P55789 | purified ALR, DTT oxidation, H2O2 HRP-luminol luminescence | inhibition, % (test concentration not listed) | 290,000 compounds, 3.8% hits | AID 485317;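 active = mean and each replicate at 75% or more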;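 note: stock transfer was 7.5 nL into about 7.5 µL; 0% = neutral wells and 100% = wells with inactivated enzyme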
Target sequence (P55789 whole entry, looked up): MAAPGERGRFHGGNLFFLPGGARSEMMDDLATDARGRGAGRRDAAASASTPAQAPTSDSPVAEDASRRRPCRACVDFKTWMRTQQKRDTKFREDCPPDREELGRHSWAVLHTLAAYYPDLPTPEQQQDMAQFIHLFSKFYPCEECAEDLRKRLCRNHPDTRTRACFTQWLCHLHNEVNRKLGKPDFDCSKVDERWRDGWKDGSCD
rRNA inh HTS: inhibits bacterial ribosomal RNA function over humanized ribosomes; E. coli WT GFP vs humanized-ribosome RFP mutants, fluorescence, 24 h; stronger effect = lower value; DMSO median 0, no signal -100; GFP signal change (wild-type ribosome), % (test concentration not listed); 350,000 compounds, 1.6% hits; AID 720706;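 active = significant combined selectivity score with lowered wild-type GFP, culture density cut under 30%, mutant RFP and density less affected; inactive = any of these conditions unmet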; note: one replicate is shown; some compounds called inactive have numbers as strong as hits
UCH37 DUB inh: blocks the human deubiquitinase UCH37 | inhibition, % (concentration not given with the values) | purified proteasome/UCH37, Ub-AMC cleavage fluorescence | Q9Y5K5 | 330,000 compounds, 0.33% hits;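 active = mean of two replicates above 20%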;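 note: 0% = compound-free wells with enzyme and 100% = wells lacking proteasome; stock transfer was 100 nL into about 20 µL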
Target sequence (Q9Y5K5 whole entry, looked up): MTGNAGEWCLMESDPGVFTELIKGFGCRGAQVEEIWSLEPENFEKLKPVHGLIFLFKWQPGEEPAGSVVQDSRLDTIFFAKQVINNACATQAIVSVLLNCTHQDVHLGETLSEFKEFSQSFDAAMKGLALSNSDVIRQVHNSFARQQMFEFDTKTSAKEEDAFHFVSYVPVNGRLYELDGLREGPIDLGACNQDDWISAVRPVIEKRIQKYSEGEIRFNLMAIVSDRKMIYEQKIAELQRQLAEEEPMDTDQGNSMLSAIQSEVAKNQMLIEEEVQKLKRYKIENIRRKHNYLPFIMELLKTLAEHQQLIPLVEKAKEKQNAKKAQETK
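Signal – fluorescence, ex 355 nm, em 460 nm · System – Proteasome-bound UCH37 · Input – 0.15 nM proteasome as dispensed · Timing – 30 min preincubation with enzyme, 25 min cleavage at room temperature · Read-out basis – percent inhibition of cleavage signal versus uninhibited and no-proteasome wells · Medium – Tris-HCl pH 7.4 with ATP-MgCl2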
Beta2AR agonist: activates human beta-2 adrenergic receptor causing internalization; P07550; Am2.2-beta2AR cells, FAP receptor internalization, flow cytometry; reference of the scale not given here; response, % (test concentration not listed); 340,000 compounds, 0.43% hits; AID 504454;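 active = response above a set limit, near 3 SD of response in nonfluorescent compounds, cut at about 42% in these data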;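 note: stock transfer was 100 nL into about 11 µL; a reference agonist was the positive control; negative values mostly stem from fluorescent compounds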
Target sequence (P07550 whole entry, looked up): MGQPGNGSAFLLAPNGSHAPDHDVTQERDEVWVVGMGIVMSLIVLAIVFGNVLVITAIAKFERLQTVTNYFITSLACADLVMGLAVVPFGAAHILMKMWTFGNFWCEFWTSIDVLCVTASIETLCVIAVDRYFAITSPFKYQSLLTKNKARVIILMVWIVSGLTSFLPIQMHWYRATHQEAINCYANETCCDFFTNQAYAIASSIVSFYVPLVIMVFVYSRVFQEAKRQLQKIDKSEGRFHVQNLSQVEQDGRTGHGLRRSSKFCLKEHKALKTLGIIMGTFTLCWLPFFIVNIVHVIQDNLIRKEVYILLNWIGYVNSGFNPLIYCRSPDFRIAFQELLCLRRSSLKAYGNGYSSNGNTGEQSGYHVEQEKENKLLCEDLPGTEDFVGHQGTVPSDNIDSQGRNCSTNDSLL
HNF4A DNA FP: change in binding of human HNF4 alpha to DNA. P41235. HNF4a-FITC DNA binding, fluorescence polarization, 1 h. activity change, % at 10 µM. 360,000 compounds, 0.3% hits. AID 1224865; in the data active = activity change above about 30%, passing the limit was not always enough;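 note: controls were the assay level and a saturating level of protein; the project sought stronger binding though the title names inhibitors; some compounds called inactive have numbers as strong as hits; positive values seem to mean higher polarization but the record does not say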
FGF22 binding: shifts melting point of recombinant human FGF22; recombinant FGF22 thermal shift, SYPRO orange fluorescence; percent of sucrose octasulfate shift, DMSO zero; Q9HCT0; AID 651658; calls only at 9.99 µM; 340,000 compounds, 1.5% hits;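 active = melting point raised past a set limit in the mean and every replicate; three in four hits are not shown here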
E coli growth: inhibitors of Escherichia coli growth; OD600 absorbance (no concentration beside the values); OD600, 23 h; stronger effect = lower value; 330,000 compounds, 0.21% hits; AID 1053175;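 active = OD600 absorbance below the run mean of sample wells minus 3.6 SD, in any replicate, cut at about 0.56 in these data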;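 note: stock transfer was 300 nL into about 60 µL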
rRNA inh HTS OD600: second read-out of rRNA inh HTS, no call of its own (marks repeat the call); OD600 change, %; measured here: OD600 growth;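 optical density of the mix in the first replicate; 0 = DMSO median and -100 = no signal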
rRNA inh HTS RFP: further read-out of rRNA inh HTS, marked with its call; RFP signal change, %; measured here: RFP humanized mutant strains;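 first replicate; 0 = DMSO median and -100 = no signal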
* marks the source's active call; other numbers are inactive results; i = inactive; / = not tested or not shown. This is a subset; count on the stated rates, not on these rows.

canonical_smiles	rRNA inh HTS OD600	rRNA inh HTS	HNF4A DNA FP	FGF22 binding	UCH37 DUB inh	ALR H2O2 inh	E coli growth	rRNA inh HTS RFP	Beta2AR agonist
Cc1ccc(S(=O)(=O)N(C)C)cc1NC(=O)CN1C(=O)NC2(CCCCCC2)C1=O	2.3	3.6	0.8	i	1.2	-6.2	0.739	-0.2	-5.7
COc1ccc(CN2CCC3CC2c2cc(-c4cccc(C)c4)ccc23)cc1 (configuration not stated)	-70.7	-47.0	3.8	i	/	/	/	-10.2	8.4
Cc1ccc(C(=O)NCC(=O)OCC(=O)Nc2cc(S(=O)(=O)N3CCOCC3)ccc2C)cc1	11.2	6.3	0.7	i	5.1	-2.4	0.693	-0.7	2.8
COc1cccc(NC(=O)CN(C)C(=O)COc2ccc3ccccc3c2)c1	/	/	-1.6	/	3.8	-14.9	0.715	/	-5.5
C/C(=N\NC(=O)c1nc2ccccn2c1C)c1cc2ccccc2o1	-25.9	-11.7	-4.8	i	/	/	/	-5.2	-20.5
COc1ccc(/C=N/n2c(-c3ccco3)nc3ccccc3c2=O)cc1	15.0	4.0	4.4	/	/	-0.8	/	-2.2	-5.9
Cc1cc(NC(=O)CSc2cn(CCNC(=O)c3ccccc3)c3ccccc23)no1	/	/	-24.2	/	2.7	-1.6	0.674	/	-7.5
O=C(N/N=C/c1ccccc1)c1sccc1OCc1ccc(F)cc1	/	/	-0.3	/	/	1.6	/	/	-30.9
CC(=O)c1cccc(N(CC(=O)NC2CCCCC2)C(=O)Cn2nnc(-c3ccccc3)n2)c1	7.0	6.4	2.8	i	1.1	4.0	0.638	-1.1	-2.0
Clc1ccccc1CSc1nnc(/C=C/c2ccccc2)o1	/	/	-5.7	/	-3.4	-5.6	0.704	/	-7.3
Cc1cc(C(=O)Nc2sc3c(c2C#N)CCC(C)C3)cs1 (configuration not stated)	/	/	-1.7	/	-23.0	3.1	0.672	/	6.2
Cc1ccc(CNS(=O)(=O)c2cc3c4c(c2)CCN4C(=O)CC3)cc1	-7.8	2.9	-0.2	i	-3.5	3.3	0.666	1.6	4.8
COc1cccc(/C=N/n2c(-c3n[nH]c4c3CCC4)n[nH]c2=S)c1O	/	/	8.7	/	/	97.0*	/	/	0.7
COc1cccc(C(=O)NC(C)c2cccc3ccccc23)c1OC (configuration not stated)	-14.5	-6.8	-3.5	i	-0.1	13.6	0.703	4.6	-5.3
Cc1[nH][nH]c(=O)c1C(c1c(C)[nH][nH]c1=O)c1cn(Cc2ccc(Cl)c(Cl)c2)c2ccccc12	3.0*	-30.4*	-0.4	i	46.8*	0.5	0.641	5.2*	37.6
Cc1ccc(C)c(NC(=O)c2ccc3c(=O)n4c(nc3c2)CCC4)c1	-9.7	-1.4	0.0	i	2.9	-0.5	0.691	-2.9	5.6
Cc1nn(-c2ccccc2)c(NC(=O)c2cccs2)c(-c2ccc(Cl)cc2)c1=O	/	/	6.1	/	1.9	9.5	0.721	/	11.3
COCc1[nH]nc2c1C1(C(=O)N(C)c3ccccc31)C(C#N)=C(N)O2 (configuration not stated)	/	/	-2.0	/	1.4	-8.4	0.715	/	5.0
Cc1ccc2[nH]c(C(=O)Nc3ccc(F)cc3)cc2c1	9.2	4.5	-0.6	i	0.4	/	0.652	-0.3	-0.5
CC(=O)Nc1ccc(S(=O)(=O)NNC(=O)c2cccc(Br)c2)cc1	4.3	6.4	-1.1	/	-0.8	32.7	0.678	-2.6	1.1
Cn1c(=O)[nH]c(=O)c2c1nc(N/N=C/c1ccncc1)n2Cc1ccc(F)cc1	2.7	-8.1	-0.3	i	/	-14.5	/	-5.5	-8.7
O=C(O)C1CCCN(C(=O)NCc2ccccc2)C1 (configuration not stated)	/	/	-2.3	/	4.5	-5.8	0.685	/	-1.0
COc1ccc2c(c1)[nH]c1c(N3CCN(Cc4ccc5c(c4)OCO5)CC3)ncnc12	/	/	-0.9	/	-7.9	-16.9	0.603	/	17.7
CC1(C(=O)NC2CCN(Cc3ccccc3)CC2)CCN1CCc1ccccc1 (configuration not stated)	11.2	14.6	1.2	i	/	/	/	5.0	/
COc1ccc(CNC(=O)C[C@H]2C[C@H](C(=O)N3CCOCC3)[C@@]3(C)c4[nH]c5cc(CCC(=O)N(C)C)ccc5c4CCN3C2=O)cc1OC	/	/	4.2	i	1.7	/	0.672	/	-10.4
O=C(c1ccc2c(c1)N(Cc1ccccc1)C(=O)c1ccccc1S2)N1CCCC1	-77.4	-52.8	2.7	i	4.4	-9.6	0.667	-26.5	-10.1
O=C1NC(NS(=O)(=O)c2ccccc2)(C(F)(F)F)C(=O)N1Cc1ccccc1 (configuration not stated)	16.0	9.7	13.2	i	3.6	-13.6	0.666	1.9	9.5
Cc1ccc(C)c(NC(=O)CSc2nc3c(oc4ccccc43)c(=O)n2-c2ccccc2)c1	8.5	10.3	0.6	i	3.4	-0.3	0.74	1.5	-4.5
CCCNC(=O)C1(C)CCN(Cc2ccc(-c3ccccn3)cc2)C1 (configuration not stated)	0.2	-6.2	-1.5	i	/	/	/	0.3	/
O=C(CCc1ccccc1Cl)NC1CCCN(c2ccc(C(F)(F)F)cn2)C1 (configuration not stated)	2.8	-1.7	1.0	i	-1.0	12.7	0.642	-1.6	1.3
CN1CCN(C(c2cccnc2)c2ccc3cccnc3c2O)CC1 (configuration not stated)	/	/	3.6	/	1.3	-3.2	0.698	/	-5.9
O=C(NC1CCN(Cc2ccccc2)CC1)C1CCN(S(=O)(=O)c2ccccc2)CC1	10.5	7.2	2.8	i	1.0	-0.8	0.675	0.2	9.4
Cc1ccc(C)c(S(=O)(=O)N2CCCOC2CNC(=O)C(=O)NC2CCCCC2)c1 (configuration not stated)	1.8	3.0	-0.2	i	0.9	-5.0	0.674	-1.9	26.1
O=C(CN1C(=O)NC2(CCCCC2)C1=O)N(Cc1ccco1)Cc1cccs1	-3.3	-1.1	0.1	i	0.7	49.5	0.646	1.5	-0.8
O=c1cc(N2CCN(c3cccc(Cl)c3)CC2)[nH]c(=O)n1C1CCCCC1	/	/	3.8	/	-2.6	-1.0	0.737	/	1.2
COc1ccc2[nH]c3c(c2c1)CCN1C(=O)C(CC(=O)NCCN2CCOCC2)C[C@H](C(=O)N2CCCCC2)[C@@]31CCc1ccccc1 (some centres not stated)	17.1	12.9	4.2	i	1.2	/	0.67	-0.9	0.0
CCCCC(=O)Nc1ccc(Br)cc1C(=O)O	/	/	4.6	/	4.5	1.8	0.702	/	17.4
CCOc1ccc(CN(C)C(=O)c2ccc(=O)[nH]c2)cc1	2.7	3.0	3.2	i	-2.1	-25.7	0.692	0.0	3.9
Cc1ccc(C(=O)N2CCN(c3ccccn3)CC2)cc1[N+](=O)[O-]	0.1	-4.1	1.3	i	4.3	8.8	0.72	-5.4	-1.9
Cn1c(Sc2ccc(C(=O)O)cc2[N+](=O)[O-])nnc1-c1ccccc1	6.3	15.4	-1.1	i	4.5	-12.3	0.685	0.7	4.5
NNC(=O)COc1cccc2cccnc12	/	/	21.7	/	2.7	12.8	0.688	/	-2.6
CCOCCCNC(=S)Nc1ccc2nc3n(c(=O)c2c1)CCCCC3	-10.1	-7.2	-5.2	i	1.4	0.4	0.665	1.6	-5.8
N#CC1=C2SC=C(c3ccc(Br)cc3)N2CCCC1=O	-7.3	-7.1	2.5	i	4.8	-2.3	0.657	5.3	9.1
Cc1csc(=O)n1CCC(=O)OCC(=O)Nc1cc(Cl)ccc1[N+](=O)[O-]	-2.6	-4.3	0.5	i	3.9	-11.7	0.584	-4.1	-8.4
COc1ccccc1CN(C)CC(=O)Nc1cccc(S(=O)(=O)N2CCCCC2)c1	-20.9	-14.2	0.8	i	4.2	/	0.69	-0.4	10.0
C[C@@H]1CN([C@H](C)CO)C(=O)CCCn2nncc2CO[C@H]1CN(C)S(=O)(=O)c1ccc(Oc2ccccc2)cc1	-23.6	2.8	-0.9	i	/	/	/	6.8	/
Cc1cc(NC(=O)C2CCCN2C(=O)Nc2c(C)cccc2C)ccc1-n1cnnn1 (configuration not stated)	/	/	1.1	/	0.1	-5.1	0.717	/	-3.2
CCOC(=O)CSc1nnc(-c2cccs2)n1-c1ccccc1	/	/	2.2	/	-1.3	-0.7	0.728	/	-0.1
CCN(CC)c1ccc(NC(=O)c2cnc3ccccn3c2=O)c(C)c1	/	/	3.4	/	7.2	99.3*	0.643	/	20.5
CCCCC(CCC(=O)Nc1ccc(C(=O)OCC)cc1)C(=O)O (configuration not stated)	/	/	-0.9	/	4.8	-0.2	0.74	/	1.7
CC1CCC2C(=O)N(c3ccccc3OC(=O)c3ccccc3)C(=O)C2C1 (configuration not stated)	/	/	4.4	/	0.9	-2.4	0.637	/	-4.8
Cn1c(=O)n(Cc2ccccc2)c(=O)c2c1nc1n2CCS1	/	/	0.8	/	-1.0	-3.6	0.694	/	-1.9
COc1cc(NC(=O)CN(c2cc(C)cc(C)c2)S(=O)(=O)c2c(C)noc2C)cc(OC)c1	5.3	2.5	2.2	i	4.6	-3.5	0.77	-8.3	3.1
c1ccc(CNc2nc3ccccc3n2CCN2CCOCC2)nc1	8.3	15.0	-0.9	i	5.3	1.5	0.727	0.0	-1.2
CC(=O)Nc1ccc(OC(=O)c2cc3cc(Br)ccc3oc2=O)cc1	/	/	2.3	/	-1.3	-8.5	0.707	/	-2.9
O=c1cc(CN2CCN(C/C=C/c3ccccc3)CC2)c2cc(O)c(-c3ccccc3)cc2o1	/	/	0.9	/	-0.5	-6.7	0.594	/	37.5
COc1ccc(NC(=O)c2ccc(NC(=O)CSc3nccc(=O)[nH]3)cc2)cc1	1.2	2.4	0.3	i	1.3	7.3	0.692	8.8	-4.4
Cc1ccccc1Nc1nc(CSc2nnnn2-c2ccccc2)cs1	/	/	13.3	/	1.9	97.7*	0.737	/	14.7
Cc1csc(NC(=O)CSc2ncnc3c2cnn3-c2ccccc2Cl)n1	/	/	-0.5	/	0.4	99.1*	/	/	-6.2
